Bioassay records from PubChem.
StopGo reporter = FMDV 2A StopGo reporter, luciferase signal | human cells with a luciferase reporter of 2A StopGo recoding; control for the full effect not named in the record | Potency, µM (doses to about 57.9 µM), without a hit: at the highest dose signal change, negative = less light | 410,000 tested, 1.2% active; active = well fitted falling curve with a large enough effect; inconclusive = small, poorly fitted or top-dose-only effect; inactive = no such curve, though single readings can be large or run the other way; tested in HEK293T cells; note: % is set by controls: 0 for no effect and ±100 for the full control effect; nearly all actives have a fitted effect of over 45% in size; luciferase light after 4 h
Marburg entry inh = Marburg virus entry inhibition. Marburg virus pseudotyped entry inhibition, cell reporter; control for the full effect not named in the record; about a third of the inactives were read at about 46 µM. Potency, µM (titrated, usually from 37.8 µM), for inactives: at the top dose activity change, negative = inhibition, actives largely listed as inhibitors. 300,000 tested, 1.8% active. AID 540276; active = well fitted inhibition curve with a large enough effect; inconclusive = small, poorly fitted or top-dose-only effect, or effect the other way; inactive = flat fitted curve, though single readings scatter; tested in HEK293 cells; about a fifth of its hits are not listed in these tables; note: % is set by controls: 0 for no effect and ±100 for the full control effect; luciferase read-out
NS1 function inh = blocks influenza NS1 protein function; S. cerevisiae slowed by influenza A NS1, growth recovery by OD600; AID 2326; Potency, µM (highest dose often 46.1 µM), for inactives: at the highest dose activity, positive = more growth; 270,000 tested, 0.4% active; active means well fitted rising curve with a large enough effect; inconclusive means small, poorly fitted or top-dose-only effect; inactive means no such curve, though single readings can be large or run the other way; note: nearly all actives have a fitted effect of over 50% in size
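In this qHTS, NS1 from influenza A is expressed in budding yeast, where it slows growth. Cells are switched from glucose to 2% galactose medium (pH 6.0, -URA), treated with compound, and growth recovery is read at OD600.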
SARS PLP yeast = blocks SARS-CoV papain-like protease in a yeast assay. S. cerevisiae expressing SARS-CoV PLpro, growth rescue; control for the full effect not named in the record. 330,000 tested, 0.19% active. AID 485353. Potency, µM (titrated, usually from 32.9 µM), inactives show top-dose activity, positive = growth rescue; active means well fitted rising curve with a large enough effect; inconclusive means small, poorly fitted or top-dose-only effect; inactive means no such curve, though single readings can be large or run the other way; note: 0% is about no effect; nearly all actives have a fitted effect of over 55% in size; growth read by luminescence after 48 h
RE007 growth inh = less growth of the S. pombe RE007 Vpr strain; Potency, µM (titrated, usually from 92.2 µM), inactives show top-dose activity change, negative = less growth; S. pombe RE007 Vpr strain, BacTiter-Glo ATP luminescence, 24 h; control for the full effect not named in the record; 360,000 tested, 0.21% active; active = well fitted falling curve with a large enough effect; inconclusive = small, poorly fitted or top-dose-only effect; inactive = no such curve, though single readings can be large or run the other way;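 note: % is set by controls: 0 for no effect and ±100 for the full control effect; nearly all actives have a fitted effect of over 50% in size; the assay follows cell death caused by Vpr and the record does not say whether a fall means rescue or toxicity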
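Fission yeast strain RE007, carrying one chromosomally integrated HIV-1 vpr copy, was seeded at OD 0.01 in PMG+AL medium with 23 nL pinned compound. After 24 h at 30 °C and 99% humidity, viability was read by BacTiter-Glo luminescence.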
Lassa entry inh = inhibitors of Lassa virus binding or cell entry; Lassa virus pseudotype entry inhibition, cell reporter; control for the full effect not named in the record; Potency, µM (top dose mostly 37.9 µM), inactives show at the top dose activity change, negative = inhibition, actives largely listed as inhibitors; 300,000 tested, 1.2% active; active means well fitted inhibition curve with a large enough effect; inconclusive means small, poorly fitted or top-dose-only effect, or effect the other way; inactive means flat fitted curve, though single readings scatter; tested in HEK293 cells; note: % is set by controls: 0 for no effect and ±100 for the full control effect; nearly all actives have a fitted effect of over 50% in size; luciferase read-out
Cruzain inh Det = blocks cruzain activity in presence of Triton detergent. Potency, µM, without a hit: max response, negative = inhibition, most hits filed as inhibitors. P25779. purified cruzain, Z-FR-AMC fluorescence, 0.01% Triton. 200,000 tested, 0.43% active;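 note: plate controls were neutral wells for no effect and buffer without enzyme for full effect; nearly all actives have a fitted effect of over 40% in size; top concentration of the series not given in the record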
Target sequence (P25779 123-467 limits assumed): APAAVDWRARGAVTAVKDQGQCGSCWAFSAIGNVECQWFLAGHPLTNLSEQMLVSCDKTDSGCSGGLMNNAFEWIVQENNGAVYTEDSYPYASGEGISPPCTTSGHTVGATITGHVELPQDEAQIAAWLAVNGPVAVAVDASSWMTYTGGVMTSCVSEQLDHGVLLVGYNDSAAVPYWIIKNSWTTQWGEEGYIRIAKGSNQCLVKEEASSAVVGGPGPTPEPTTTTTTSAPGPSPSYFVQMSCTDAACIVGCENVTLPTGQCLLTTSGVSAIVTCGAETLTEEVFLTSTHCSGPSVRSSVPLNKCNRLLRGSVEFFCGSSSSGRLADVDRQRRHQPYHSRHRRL
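Cruzain (1.5 nM) preincubated 15 min at RT with compound in 100 mM sodium acetate pH 5.5, 5 mM DTT, 0.01% Triton X-100. Reaction started with 2 uM Z-FR-AMC; AMC fluorescence (ex 360/em 450 nm) change over 60 s gave rate.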
Cruzain noTriton = cruzain (T. cruzi) inhibition without detergent; P25779; purified cruzain, Z-FR-AMC fluorescence, no detergent; Potency, µM, inactives show max response, negative = inhibition, actives largely listed as inhibitors; 200,000 tested, 2.3% active; AID 1476;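 note: plate controls were enzyme without inhibitor for no effect and buffer without enzyme for full effect; nearly all actives have a fitted effect of over 40% in size; top concentration of the series not given in the record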
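Detergent-free condition (0.00005% Triton X-100) in acetate buffer pH 5.5 with DTT. 1.5 nM enzyme and compound were pre-mixed 15 min, then 2 uM Z-FR-AMC substrate added; reaction progress from fluorescence change between first and third reads (60 s).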
An asterisk follows results filed as active; u = inconclusive; x = not tested or not shown; & = joins results of further samples; [ ] = another dose, or the depositor's remark. Unless noted, calls come from the whole dose curve; as a rule, active = well fitted curve in the direction sought with a large enough effect; inconclusive = small, poorly fitted or top-dose-only effect, or another doubt; inactive = no such curve, though single readings can be large; an effect the other way counts as inactive or inconclusive. Potency is the fitted concentration of half-maximal effect.

Value order: StopGo reporter	Marburg entry inh	NS1 function inh	SARS PLP yeast	RE007 growth inh	Lassa entry inh	Cruzain inh Det	Cruzain noTriton
[1] COC(=O)C(O)(CC(=O)Nc1ccc(OC)cc1)C(F)(F)F (stereo not given)
  -2%	6%	2%	8%	24%	2%	0.7%	2%
[2] O=C(Nc1ccc(C(F)(F)F)cc1[N+](=O)[O-])O[C@H]1[C@H](Cc2ccccc2)NS(=O)(=O)[C@H]2C[C@@H]3C=C[C@]12O3
  -14%	4%	x	2%	5%	x	x	x
[3] CCOC(=O)N1CCN(S(=O)(=O)c2ccc(C(=O)N(CCCN(C)C)c3nc4c(F)cc(F)cc4s3)cc2)CC1
  -20%	12%	x	2%	12%	u	x	x
[4] COC(=O)C(C(C)C)N1CCc2c(C)nc3c(C#N)cnn3c21 (stereo not given)
  -12%	0%[46.1 µM]	2%	0%	5%	12%[46.1 µM]	x	x
[5] O=C(COc1ccc(-c2nnco2)cc1)Nc1ccc(F)c(Cl)c1
  0%	-11%[46.1 µM]	x	-37%	-5%	-2%[46.1 µM]	x	x
[6] CCOC(=O)Cc1nnc(NC(=O)Nc2ccccc2)s1
  -7%	13%	6%	-2%	2%	15%	-1.1%	9%
[7] CCOC(=O)C1C2C=CC3(CN(C4CCCC4)C(=O)C13)O2 (stereo not given)
  0%	u	-2%	-1%	7%	0%	1.9%	-5%
[8] CC1(C)CC[C@]2(C(=O)O)CC[C@]3(C)C(=CCC4[C@@]5(C)CC[C@H](O)C(C)(C)C5CC[C@]43C)C2C1 (stereo not given in full)
  u	-3%	4%	-8%	3%	0%	1.7%	-8%
[9] Cc1ccc(-c2ccc3nnc(SCC(N)=O)n3n2)cc1
  6%	10%[46.1 µM]	-2%	0%	1%	-1%	x	x
[10] CCc1nnc2c(NCc3ccccc3OC)nc3ccccc3n12
  0%	x	x	x	x	0%[46.1 µM]	-0.5%	6%
[11] CCc1ccc(-c2nc(SCC(=O)NCC3CCCO3)c(-c3ccc(F)cc3)[nH]2)cc1 (stereo not given)
  3%	-13%[46.1 µM]	x	x	x	-14%[46.1 µM]	-5.0%	8%
[12] CSc1nnc2c3cc(F)ccc3n(C)c2n1
  -2%	x	-54%	-11%	-5%	x	x	x
[13] Cc1cc(C)c(C2=NOC3C4CCC(C4)C23)c(C)c1 (stereo not given)
  -21%	3%	6%	43%	-8%	-7%	-6.5%	-2%
[14] CN1C2CCC1CC(NC(=O)c1ccc(Cl)cc1)C2 (stereo not given)
  8%	-20%[46.1 µM]	4%	0%	5%	u	x	x
[15] COc1cccc(NC(=O)CN2C(=O)c3cccnc3Oc3ccc(Cl)cc32)c1
  -4%&14%	x	14%	4%	1%	-19%[46.1 µM]	x	x
[16] C=CCNC(=O)C1CCC(CNc2nc(=S)[nH]c3ccccc23)CC1 (stereo not given)
  -2%	x	0%	0%	-9%	x	x	x
[17] Cc1nn2c(-c3ccc(Cl)cc3)nnc2s1
  17%	u	-48%	-2%	20%	-7%	4.2%	3%
[18] Nc1nc(SCC(=O)Nc2ccc(Br)cc2F)n[nH]1
  -21%	-4%	7%	2%	-15%	3%	2.2%	-3%
[19] C=CCN1C(=O)/C(=C2/Sc3ccccc3N2CC)SC1=S
  -20%	u	1%	2%	0%	u	x	x
[20] c1ccc(CCNc2ccc3c(c2)Cc2ccccc2-3)nc1
  29%	1µM*	x	x	-6%	u	x	x
[21] O=c1[nH]n(Cc2ccccc2)c(=O)c2ccccc12
  32%[activator]	16%	-31%	-3%	5%	-25%	-1.0%	-7%
[22] Cc1cc2ccccc2n1CCNC(=O)C1CCCCC1
  -19%	x	27%	-4%	-6%	x	-4.5%	0%
[23] O=C(NCc1ccc2c(c1)OCO2)c1cc(-n2cnnc2)ccc1Cl
  -12%	-7%	-8%	7%	-1%[3.69 µM]	22%	5.4%	11%
[24] COc1ccccc1N(C)S(=O)(=O)c1ccc(Cl)c(C(=O)NCc2ccco2)c1
  -18%	u	x	2%	-3%	-12%	x	x
[25] CCCCN1CCN=C1Nc1ccccc1
  5%	x	-2%	2%	3%	x	x	x
[26] COc1ccc(N(CC(=O)O)S(=O)(=O)c2ccc(C)cc2)cc1Cl
  -8%	-17%[46.1 µM]	-1%	1%	5%	u	x	x
[27] O=C(N/N=C/c1cccc(NC(=O)c2ccc(Cl)cc2)c1)c1cccc(O)c1
  -13%	u	-34%	0%	7%	u	x	x
[28] O=C(CSc1ccc2nnc(CCNC(=O)c3ccccc3)n2n1)Nc1ccc(F)cc1F
  -7%	-9%	2%	-3%	12%	9%	x	x
[29] COc1ccc(OC)c(CNC(=O)c2cc3c(Cl)nc4ccccc4c3s2)c1
  -14%	14%[46.1 µM]	x	x	x	-3%[46.1 µM]	1.2%	-18%
[30] O=C(COc1ccccc1F)N1CCN(Cc2cc(=O)n3nc(-c4ccccc4Cl)sc3n2)CC1
  u	x	x	x	x	13%[46.1 µM]	2.2%	-9%
[31] Cc1cccc(C)c1NC(=O)C(NC(=O)c1ccccn1)c1ccccc1[N+](=O)[O-] (stereo not given)
  1%	-3%	-2%	u	-1%	x	-2.7%	-3%
[32] CCOc1ccc(-n2cc(C(=O)Nc3ccccc3OCC)c3cc(OC)c(OC)cc3c2=O)cc1
  -8%	-1%[46.1 µM]	x	x	x	-15%[46.1 µM]	2.0%	6%
[33] O=C(c1ccc2c(c1)OCO2)N1CCN(c2ncccn2)CC1
  -9%	0%	13%	-20%	26%	u	-0.8%	-2%
[34] Cn1cccc1CC(=O)N/N=C/c1ccc(Cl)c([N+](=O)[O-])c1
  3%	x	7%	3%	12%	x	x	x
[35] Cc1ccc(-c2csc(NC(=O)CN3CCC(C(N)=O)CC3)n2)cc1
  -19%	u	-5%	2%	8%	u	x	x
[36] COCCNC(=S)Nc1ccc([N+](=O)[O-])cc1C
  30%[activator]	-2%[46.1 µM]	2%	0%	-6%	9%[46.1 µM]	x	x
[37] Cc1cccc(C(=O)N2CCC(=O)N([C@H](COCc3ccccc3)Cc3ccccc3)CC2)c1
  -7%	x	x	x	-11%	x	0.5%	26%
[38] Cc1cnc(C(=O)N2CCCC(N3CCN(c4ccccc4F)CC3)C2)cn1 (stereo not given)
  1%	6%	6%	-4%	-2%	-3%	x	x
[39] COc1cc(SC)ccc1C(=O)Nc1ccc2ncccc2c1
  34%[activator]	u	-29%	-15%	0%	u	x	x
[40] Nc1c(C(=O)c2ccccc2)sc2c1c(=O)[nH]c(=O)n2-c1ccccc1
  -23%	2%	0%	-20%	6%	u	-7.6%	11%
[41] CC1CN(CC(=O)c2c(N)n(Cc3ccccc3)c(=O)n(C)c2=O)CC(C)O1 (stereo not given)
  -3%	20%	4%	u	-10%	-17%	5.2%	2%
[42] CN1CCN(C(=O)c2cnn(-c3ccccc3)c2NC(=O)c2ccccc2Br)CC1
  -7%	19%[46.1 µM]	-12%	2%	12%	x	x	x
[43] CC(C)[C@H](NC(=O)c1ccco1)C(=O)OCC(=O)Nc1ccc(Cl)c(S(=O)(=O)N(C)C)c1
  u	-9%[46.1 µM]	-52%	1%	5%	27%	x	x
[44] Cc1nc(NC(=O)c2ccc(F)cc2)sc1C(=O)Nc1ccc2c(c1)CCC2
  x	-6%	29%	-7%	11%	-21%	-5.2%	u
[45] N#C/C(=C\c1ccncc1)c1ccccn1
  -5%	u	0%	-3%	u	-26%	x	x
[46] CCOC(=O)c1cc2c(=O)n3ccccc3nc2n(Cc2ccco2)c1=NC(=O)c1cccnc1
  -2%	7.3µM*	-2%	3%	25%	u	16µM*	-4%
[47] CCc1ccc(OCC(=O)N2CCc3ccccc32)cc1
  32%[activator]	u	-29%	-6%	-2%	-10%[46.1 µM]	x	x
[48] COc1ccccc1OCC(=O)OCC(=O)Nc1sccc1C(N)=O
  0%	-21%	6%	-3%	2%	1%	-3.4%	6%
[49] COC(=O)c1ccc(OC(=O)N2CCOCC2)cc1
  7%	x	-3%	-4%	9%	x	x	x
[50] Cc1ccc(/C=c2/sc3nnc(-c4ccccc4Cl)n3c2=O)o1
  -5%	u	-18%	2%	6%	2%	-14%	-13%
[51] Cc1cc(/C([O-])=C(/C(=S)Nc2ccc(F)cc2)[n+]2ccccc2)c(C)n1-c1ccc(F)cc1
  -6%	10%	21%	0%	-6%	-2%	-6.9%	-29%
[52] Cc1ccnc(NS(=O)(=O)Cc2ccccc2)c1
  47%[activator]	12%[46.1 µM]	0%	-4%	14%	16%	-4.6%	-8%

From no. 45 up to 52, copied from above:
Value order: StopGo reporter	Marburg entry inh	NS1 function inh	SARS PLP yeast	RE007 growth inh	Lassa entry inh	Cruzain inh Det	Cruzain noTriton
[45] N#C/C(=C\c1ccncc1)c1ccccn1
  -5%	u	0%	-3%	u	-26%	x	x
[46] CCOC(=O)c1cc2c(=O)n3ccccc3nc2n(Cc2ccco2)c1=NC(=O)c1cccnc1
  -2%	7.3µM*	-2%	3%	25%	u	16µM*	-4%
[47] CCc1ccc(OCC(=O)N2CCc3ccccc32)cc1
  32%[activator]	u	-29%	-6%	-2%	-10%[46.1 µM]	x	x
[48] COc1ccccc1OCC(=O)OCC(=O)Nc1sccc1C(N)=O
  0%	-21%	6%	-3%	2%	1%	-3.4%	6%
[49] COC(=O)c1ccc(OC(=O)N2CCOCC2)cc1
  7%	x	-3%	-4%	9%	x	x	x
[50] Cc1ccc(/C=c2/sc3nnc(-c4ccccc4Cl)n3c2=O)o1
  -5%	u	-18%	2%	6%	2%	-14%	-13%
[51] Cc1cc(/C([O-])=C(/C(=S)Nc2ccc(F)cc2)[n+]2ccccc2)c(C)n1-c1ccc(F)cc1
  -6%	10%	21%	0%	-6%	-2%	-6.9%	-29%
[52] Cc1ccnc(NS(=O)(=O)Cc2ccccc2)c1
  47%[activator]	12%[46.1 µM]	0%	-4%	14%	16%	-4.6%	-8%
